TRPML1 agonist = qHTS for Agonists of the Human Mucolipin Transient Receptor Potential 1 (TRPML1); Mucolipin-1 (Homo sapiens), Q9GZU1; TRPML1-expressing cells, Ca2+ dye fluorescence, FDSS; host cell line not named in the record; reference of the full effect not given here; activation, % (no concentration beside the values); 410,000 tested, 0.12% active; in the data active = activation above about 50%; inconclusive = about 30% to 50%; inactive = below about 30%; note: 0% is about no effect; the text of the record puts the active cut at 80%
Target sequence (Q9GZU1 whole entry, looked up): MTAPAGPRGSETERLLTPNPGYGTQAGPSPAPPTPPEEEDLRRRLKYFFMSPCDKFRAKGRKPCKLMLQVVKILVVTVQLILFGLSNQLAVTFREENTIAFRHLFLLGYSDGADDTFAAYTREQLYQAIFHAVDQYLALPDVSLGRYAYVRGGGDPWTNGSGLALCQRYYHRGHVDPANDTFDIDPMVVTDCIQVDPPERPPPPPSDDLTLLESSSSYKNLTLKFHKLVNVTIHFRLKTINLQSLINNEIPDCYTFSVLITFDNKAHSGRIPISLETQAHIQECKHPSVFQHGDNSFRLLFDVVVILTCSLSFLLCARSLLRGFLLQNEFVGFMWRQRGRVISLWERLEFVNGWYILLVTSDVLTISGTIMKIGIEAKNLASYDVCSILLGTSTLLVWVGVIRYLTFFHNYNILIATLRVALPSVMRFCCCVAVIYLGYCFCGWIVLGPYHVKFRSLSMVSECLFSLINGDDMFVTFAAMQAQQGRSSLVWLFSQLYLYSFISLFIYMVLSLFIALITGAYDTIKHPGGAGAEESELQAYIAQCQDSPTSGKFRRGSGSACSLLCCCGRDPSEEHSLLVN
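In this qHTS format, compounds were pin-transferred onto Ca8-dye-loaded TRPML1-DL cells induced with Tet overnight, and intracellular Ca2+ fluorescence was recorded kinetically for 110 s after a 10 s baseline. A subsequent 4uM final 54-4 (EC80) addition followed by a second 110 s read served as the antagonist phase.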
CtBP-E1A blk = qHTS Assay for Inhibitors of the CtBP/E1A Interaction; AlphaScreen GST-E1A/His-CtBP binding, 1536-well; hits give low values; control for the full effect not named in the record; activity change, % (concentration not given with the values); CtBP / adenovirus E1A interaction (AlphaScreen); 340,000 tested, 0.49% active; in the data active means activity change below about -65%; inconclusive means about -30% to -65%; inactive means above about -30%; note: % is set by controls: 0 for no effect and ±100 for the full control effect
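Protein mix (5X: 125 nM each GST-E1A, His-CtBP) was incubated with pinned compound 2 h at 37 deg C in dark, in 50 mM Tris pH 8.0 buffer with 300 mM NaCl. Glutathione donor and nickel acceptor beads followed; AlphaScreen signal read after 1 h.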
TRPML1 inh = qHTS for Inhibitors of the Human Mucolipin Transient Receptor Potential 1 (TRPML1); AID 624415, 2012; 390,000 tested, 0.02% active; activity change, negative = inhibition, % (concentration not given with the values); TRPML1-inducible cells, Ca2+ dye fluorescence, FDSS; hits give low values; inhibition of EC80 agonist-evoked calcium signal; in the data active means activity change below about -50%; inconclusive means about -30% to -50%; inactive means above about -30%;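 note: stimulus is agonist 54-4 at its EC80 concentration; % is set by controls: 0 for no effect and ±100 for the full control effect; compound concentration not given in the record; the text of the record puts the active cut at -80%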
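Calcium fluorescence in TRPML1-DL cells induced overnight with Tet: a 110 s read after compound pin addition, then a 110 s antagonist read after challenge with 54-4 at 4 uM final (EC80).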
Six1-Eya2 inh = qHTS Assay for Inhibitors of the Six1/Eya2 Interaction; 360,000 tested, 0.56% active; AlphaScreen GST-Six1/His-Eya2 binding, biochemical; hits give low values; control for the full effect not named in the record; activity change, % (test concentration not listed); Homeobox protein SIX1 (Homo sapiens) + Protein phosphatase EYA2 (Homo sapiens), …; in the data active = activity change below about -65%; inconclusive = about -30% to -65%; inactive = above about -30%; note: % is set by controls: 0 for no effect and ±100 for the full control effect; compound concentration not given in the record
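Six1/Eya2 binding was read as AlphaScreen signal after compounds were pinned into GST-Six1 plus His-tagged Eya2 (5X stock 250/500 nM) in pH 8.0 Tris/NaCl/TCEP buffer, beads added, then incubated 1 h, 37 C, dark.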
PINK1 modulator = A Quantitative High throughput Screen to Identify Chemical Modulators of PINK1 Expression. PINK1 immunofluorescence, high-content cytometry, 24 h. Potency, µM (titrated, usually from 76.6 µM), for inactives: at the highest dose activation (PINK1 increase), actives largely listed as activators. 410,000 tested, 0.2% active. AID 624263, 2012; active = well fitted activation curve with a large enough effect; inconclusive = small, poorly fitted or top-dose-only effect; inactive = flat fitted curve, though single readings scatter; cell line not stated here;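 note: potency is the fitted concentration of half-maximal effect; % of control where 0% means no effect; nearly all actives have a fitted effect of over 65% in size; a mitochondrial uncoupler was the plate control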
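Measures PINK1 amount and localization on or inside mitochondria by immunofluorescence. Stable cells get compounds at 5 concentrations for 24 hours before fixation and staining; CCCP controls included.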
D2 ag = Beta-Arrestin HTS for Positive Allosteric Modulators of the Human D2 Dopamine Receptor: Agonists. 360,000 tested, 0.084% active. activation, % (test concentration not listed). DiscoveRx PathHunter D2 beta-arrestin, luminescence, 90 min; 100% = 57 uM dopamine signal. D(2) dopamine receptor (Homo sapiens), P14416; in the data active = activation above about 40%; inconclusive = about 15% to 40%; inactive = below about 15%; note: compound concentration not given in the record; the text of the record calls up to 30% inactive
Target sequence (P14416 whole entry, looked up): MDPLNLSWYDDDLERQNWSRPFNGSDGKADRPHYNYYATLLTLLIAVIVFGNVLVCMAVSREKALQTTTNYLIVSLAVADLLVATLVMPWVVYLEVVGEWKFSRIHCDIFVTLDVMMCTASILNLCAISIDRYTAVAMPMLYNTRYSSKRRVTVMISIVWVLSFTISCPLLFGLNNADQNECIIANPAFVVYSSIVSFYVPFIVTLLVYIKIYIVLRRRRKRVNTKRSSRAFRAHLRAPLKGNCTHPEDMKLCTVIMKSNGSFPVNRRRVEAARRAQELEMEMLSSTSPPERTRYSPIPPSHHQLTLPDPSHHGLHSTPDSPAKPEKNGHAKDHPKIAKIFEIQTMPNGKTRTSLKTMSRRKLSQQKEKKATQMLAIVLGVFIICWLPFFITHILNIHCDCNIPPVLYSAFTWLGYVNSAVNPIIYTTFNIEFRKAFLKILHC
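DiscoveRx PathHunter D2 beta-arrestin cells (2,100/well) attached overnight, then compound-stimulated 90 min at 37 C in HBSS/10 mM HEPES/0.1% Tween-20 buffer; beta-galactosidase complementation read by luminescence after 1 h at ambient temperature. Dopamine 57 uM final (EC100) as control.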
The depositor's hits bear a star; ? = inconclusive; . = not tested or not shown; & = joins results of further samples; [ ] = another dose, or the depositor's remark.

Short forms: A = TRPML1 agonist; B = CtBP-E1A blk; C = TRPML1 inh; D = Six1-Eya2 inh; E = PINK1 modulator; F = D2 ag
O=C(NCc1ccc(N2CCCC2=O)cc1)Nc1ccccc1
  A: 1.5; B: 3; C: -2; D: 12; E: 0.6%; F: -0.1

CCCCCCCCc1nc(SCC(C)=O)n[nH]1
  A: 3.1; B: -1; C: -6; D: 8; E: -0.8%; F: -1.7

COc1cc(C(=O)Nc2ccc(OCc3cc(=O)n4ccc(C)cc4n3)cc2)cc(OC)c1OC
  A: -0.3; B: .; C: -3; D: .; E: 1.5%; F: .

CC1CC(C)CN(C(=O)c2ccccc2Nc2ccc(SC(F)F)cc2)C1 (stereo not drawn)
  A: 1.7; B: 0; C: 3; D: 4; E: 0.2%; F: -7.0

CCC(CC)C(=O)N(C)c1c(C)nc2c(OCc3ccc(C#N)cc3)cccn12
  A: 0.1; B: 0; C: 7; D: 4; E: -0.8%; F: -1.6

O=C(Nc1ccc2c(c1)OCCO2)C(C1CC1)N1CCC(Cc2ccccc2)CC1 (stereo not drawn)
  A: -0.6; B: -10; C: .; D: -11; E: -0.4%; F: 3.0

CCOC(=O)NNc1ccccc1
  A: 0.6; B: 2; C: -7; D: 0; E: -1.3%; F: -1.5

O=C1CC2(CCN(C(=O)COc3ccc(Cl)cc3)CC2)Oc2ccccc21
  A: 0.5; B: -5; C: -3; D: -5; E: 2.0%; F: -0.3

O=C(COc1ccccc1CNCc1ccccc1)Nc1ccccc1
  A: -0.6; B: 7; C: -8; D: 0; E: -4.5%[38.3 µM]; F: -4.9

CCN(CC)C(=O)c1csc([C@H]2C[C@H](O)[C@@H](CO)O2)n1
  A: -0.3; B: 7; C: .; D: 6; E: 1.4%; F: -5.4

CCn1cc(CN2CCCC(C(=O)Nc3ccc(-c4cscn4)cc3)C2)c(C)n1 (stereo not drawn)
  A: 0.4; B: 1; C: 27; D: -2; E: -1.3%; F: -2.9

COc1ccccc1Cn1c(=S)[nH]c2cc(C(=O)N3CCCC3)ccc2c1=O
  A: -1.0; B: -1; C: 9; D: 2; E: 3.8%; F: -1.5

COc1ccccc1/C=C/C=N/Nc1cccc(C(=O)O)c1
  A: 0.2; B: -20; C: 8; D: -11; E: 0.9%; F: -0.8

Cc1cc(NC(=O)c2cccc(C(=O)Nc3cc(C)on3)n2)no1
  A: -0.7; B: ?; C: 0; D: -25; E: 1.7%; F: -0.4

O=C(/C=C/c1ccc(F)cc1)NCCCN1CCN(CCCNC(=O)/C=C/c2ccc(F)cc2)CC1
  A: -0.1; B: 12; C: -1; D: -7; E: 4.2%; F: -1.1

Cc1ccc(C2NC(=O)c3c(sc4c3CCN(C)C4)N2)o1 (stereo not drawn)
  A: 7.9; B: -5; C: -17; D: -3; E: 0.2%[38.3 µM]; F: 0.4

Cn1c(NC(=O)c2ccc(S(=O)(=O)N3CCCCC3)cc2)cc(=O)n(C)c1=O
  A: -0.2; B: 1; C: 7; D: 7; E: -2.5%; F: 1.1

CC(C)SCCCOc1ccc(C(C)(C)C)cc1
  A: -0.8; B: 11; C: 3; D: 11; E: 1.5%; F: -0.1

O=C(O)c1ccccc1-c1ccccc1C(=O)Nc1cccc(O)c1
  A: 0.5; B: 0; C: 27; D: 5; E: 0.9%; F: -0.6

O=C1CCC(/C=C/c2ccccc2)=NN1Cc1ccc(F)cc1
  A: 1.1; B: 11; C: 8; D: 11; E: 0.8%; F: -1.9

Cc1cc(Cl)ccc1NC(=O)COC(=O)CCNS(=O)(=O)c1ccccc1
  A: -0.8; B: .; C: 14; D: 0; E: 1.6%; F: -3.0

Fc1ccc(-c2cnc(-c3cccs3)o2)cc1
  A: 0.1; B: 17; C: 20; D: 15; E: 0.1%; F: -3.8

CCn1cnc2sc(-c3ccccc3)cc2c1=O
  A: -0.5; B: 6; C: -8; D: -2; E: -0.3%; F: -1.4

CN(C)c1ccc(P(=O)(Nc2ccccc2)N2CCOCC2)c(NC(=O)c2cccs2)c1 (stereo not drawn)
  A: 0.3; B: -29; C: -15; D: ?; E: 6.0%; F: -0.4

CC1(C)CC2CC(C)(CN2C(=O)COC(=O)c2ccc(O)cc2O)C1 (stereo not drawn)
  A: 0.0; B: -1; C: 19; D: -1; E: 1.0%; F: -5.8

CCCCc1ccc(-n2nc3cc(C)c(NC(=O)Cc4ccccc4)cc3n2)cc1
  A: -0.4; B: .; C: 13; D: .; E: 0.5%; F: .

Cc1nn(CCc2nn[nH]n2)c2nc(-c3ccc(C4CCCCC4)cc3)cc(C(F)(F)F)c12
  A: 1.2; B: 0; C: 16; D: 2; E: ?; F: 4.1

O=C1CC(SCCc2nc3ccccc3[nH]2)C(=O)N1c1ccc(F)cc1 (stereo not drawn)
  A: 0.5; B: -5; C: -5; D: 4; E: 1.5%[38.3 µM]; F: -3.3

Cc1cccc(N2CCN(C(=O)c3ccc4nccnc4c3)CC2C)c1 (stereo not drawn)
  A: -0.8; B: 0; C: 18; D: -7; E: 8.0%; F: 0.0

CN(C)C(=O)NCc1ccc(S(N)(=O)=O)cc1
  A: 1.5; B: -1; C: 2; D: -3; E: -1.9%[38.3 µM]; F: -4.5

COc1ccc(N(CC(=O)Nc2ccc(C)c(C)c2)S(=O)(=O)c2ccc(C)cc2)cc1OC
  A: 1.7; B: .; C: -6; D: .; E: 4.3%; F: .

NNC(=O)CN1C(CN2CCOCC2)=Nc2ccc(Br)cc2C1c1ccccc1 (stereo not drawn)
  A: 0.2; B: 3; C: -1; D: -8; E: -0.1%; F: -0.1

CN(C)C(=O)c1ccccc1Sc1cc(Cl)ccc1Cl
  A: 0.8; B: 10; C: 41; D: 6; E: -0.6%; F: -1.5

COCC(=O)Nc1nc(-c2ccc([N+](=O)[O-])cc2)cs1
  A: 1.4; B: 6; C: 8; D: -10; E: 0.6%; F: 1.8

Cc1cccc(-n2c(O)c(C=Nc3c(C)n(C)n(-c4ccccc4)c3=O)c3ccccc3c2=O)n1
  A: 0.8&0.4; B: 4&-1; C: 44&4; D: 6&-7; E: 2.1%&16%; F: 3.4&0.4

CCc1nc(SCC(=O)N2CCC(C)CC2)c2c(=O)n(C)c(=O)n(C)c2n1
  A: -0.8; B: -8; C: -5; D: 1; E: -0.7%; F: -4.7

Cc1ncc(CO)c2c1Oc1nc(-c3ccc(Cl)cc3)nc(SCC(=O)N3CCCCC3)c1C2
  A: 1.2; B: .; C: 7; D: .; E: -0.3%; F: .

O=C(COC(=O)c1cccc(S(=O)(=O)NCc2ccccc2)c1)NCC1CCCO1 (stereo not drawn)
  A: 0.8; B: 6; C: -5; D: 8; E: -2.6%; F: 3.4

COc1ccc(NC(=O)C(Cc2ccccc2)NS(=O)(=O)c2ccc(Br)s2)cc1OC (stereo not drawn)
  A: 2.2; B: .; C: 2; D: .; E: -1.7%; F: .

COc1ccc(Cn2ccnc2)cc1[N+](=O)[O-]
  A: -0.3; B: 1; C: ?; D: 10; E: 1.9%; F: -2.9

O=C(CCCCCNC(=O)c1ccccc1)N/N=C/c1ccco1
  A: 0.0; B: 2; C: -10; D: 2; E: 0.1%; F: -3.3

COc1ccc(CCNCc2c(C(=O)O)c(C)n(Cc3cccc(C)c3)c2C)cc1OC
  A: -1.1; B: .; C: 3; D: .; E: 1.5%; F: .

COc1ccc(C=C2C(=O)c3ccccc3C2=O)cc1O
  A: 0.0; B: 3; C: -4; D: 4; E: 2.0%; F: -3.5

O=C(COC(=O)CCS(=O)(=O)c1ccc(Cl)cc1)Nc1ncc(Cl)cc1Cl
  A: 0.3; B: -1; C: 4; D: 14; E: 1.2%; F: -1.8

CCOC(=O)c1c(NC(=O)COC(=O)c2ccc(S(=O)(=O)C(F)F)cc2)sc(C(=O)N(C)C)c1C
  A: 1.2; B: -9; C: -1; D: -1; E: -0.9%; F: 3.6

N#Cc1ccc(S(=O)(=O)N2CCN(CC(=O)Nc3ccccc3C(=O)NC3CC3)CC2)cc1
  A: 4.4; B: -7; C: 23; D: 2; E: 1.8%; F: 8.8

Cc1nnc(NC(=O)Cn2c(=O)sc3ccccc32)s1
  A: -1.2; B: 5; C: -11; D: 1; E: 5.0%; F: -6.3

COc1ccc(Nc2cc(C(=O)NCCCN3CCN(c4ccccc4F)CC3)c3ccccc3n2)c(OC)c1
  A: 2.9; B: .; C: -30; D: .; E: 2.0%; F: .

CS(=O)(=O)N(Cc1ccccc1)c1ccc(C(=O)Nc2ccccc2C(=O)O)cc1
  A: 1.9; B: .; C: 63; D: -4; E: -0.4%; F: 0.2

C=C(C)CN(CC)C(=O)CSc1nc2ncc(Cl)cc2[nH]1
  A: -0.3; B: -1; C: -5; D: -2; E: 1.4%; F: -1.4

COC(=O)Cn1c2c(c3cc(C)ccc31)CCCC2NC(C)c1ccccc1 (stereo not drawn)
  A: 1.3; B: 3; C: 3; D: 1; E: 4.4%; F: -3.2

Structures shown so far that contain fluorine (8):
Short forms: A = TRPML1 agonist; B = CtBP-E1A blk; C = TRPML1 inh; D = Six1-Eya2 inh; E = PINK1 modulator; F = D2 ag
CC1CC(C)CN(C(=O)c2ccccc2Nc2ccc(SC(F)F)cc2)C1 (stereo not drawn)
  A: 1.7; B: 0; C: 3; D: 4; E: 0.2%; F: -7.0

O=C(/C=C/c1ccc(F)cc1)NCCCN1CCN(CCCNC(=O)/C=C/c2ccc(F)cc2)CC1
  A: -0.1; B: 12; C: -1; D: -7; E: 4.2%; F: -1.1

O=C1CCC(/C=C/c2ccccc2)=NN1Cc1ccc(F)cc1
  A: 1.1; B: 11; C: 8; D: 11; E: 0.8%; F: -1.9

Fc1ccc(-c2cnc(-c3cccs3)o2)cc1
  A: 0.1; B: 17; C: 20; D: 15; E: 0.1%; F: -3.8

Cc1nn(CCc2nn[nH]n2)c2nc(-c3ccc(C4CCCCC4)cc3)cc(C(F)(F)F)c12
  A: 1.2; B: 0; C: 16; D: 2; E: ?; F: 4.1

O=C1CC(SCCc2nc3ccccc3[nH]2)C(=O)N1c1ccc(F)cc1 (stereo not drawn)
  A: 0.5; B: -5; C: -5; D: 4; E: 1.5%[38.3 µM]; F: -3.3

CCOC(=O)c1c(NC(=O)COC(=O)c2ccc(S(=O)(=O)C(F)F)cc2)sc(C(=O)N(C)C)c1C
  A: 1.2; B: -9; C: -1; D: -1; E: -0.9%; F: 3.6

COc1ccc(Nc2cc(C(=O)NCCCN3CCN(c4ccccc4F)CC3)c3ccccc3n2)c(OC)c1
  A: 2.9; B: .; C: -30; D: .; E: 2.0%; F: .
